# Assay outcomes (PubChem BioAssay)
# Biofilm kill mix – clotrimazole potentiators killing C. albicans biofilm, primary screen, 4-compound mixtures; AID 1242, 2008; 120,000 tested, 0.02% active; inhibition, % at 7.6 µM; C. albicans biofilm persisters + clotrimazole, fluorescence viability; primary screen in compound mixtures of four per well;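 active means inhibition above 30.3% in the primary screen of four-compound pools, then above 30% when the compound was retested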;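 further: compounds exposed to preformed 24 h biofilms for 48 h; the number belongs to the whole pool; some results filed as inactive read as strong as hits; inactives centre near 12; 0% = biofilm with clotrimazole alone and 100% = kill control; retested singly at about 60 µM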
#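 Incubation: 24 h biofilm formation, then 48 h compound exposure, 37 °C | Material: C. albicans biofilms | Buffer or medium: RPMI/MOPS medium, pH 7.0 | Measured by: 2-h Alamar Blue fluorescence, 535/590 nm excitation/emission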
# * = called active by the depositor. This is a subset (hit frequency here may not be typical).
SMILES,Biofilm kill mix
CCN(CC)CCCNC(=O)c1cc2nc3c(c(C(F)(F)F)n2n1)CCc1ccccc1-3,16
CCCCC(=O)OCc1nc(N)nc(Nc2ccccc2C)n1,5
COc1ccc(C(=O)/C=C/c2ccc(OC3CSC3)cc2)cc1OC,10
NC(=O)CSc1nc2ccc([N+](=O)[O-])cc2[nH]1,18
COc1ccc(C(NC(=O)C2C3C=CC(C3)C2C(=O)O)c2ccccc2)cc1 (stereo not given),-4
Cc1ccc(N2C(=O)C3ON(c4ccccc4)C(CC(C)C)C3C2=O)cc1 (stereo not given),19
CN(C)CCNc1c2c(nc3nnnn13)CCCC2,10
O=C(CCc1nnc(CCc2ccccc2)o1)NC(c1cccnc1)C(F)(F)F (stereo not given),17
Cc1[nH][nH]c(=O)c1C(c1ccc(-c2cccc(Cl)c2)o1)c1c(C)[nH][nH]c1=O,18
COc1cc2c(cc1OC)C1(CCCC1)CNC2c1ccc([N+](=O)[O-])cc1 (stereo not given),15
CC1CCc2c(sc(/N=C/c3ccco3)c2C(N)=O)C1 (stereo not given),17
O=C1C(=O)N2C(=C1C(=O)N1CCCCCC1)c1ccccc1CC21CCCC1,15
C/C=C/C=C/C(=O)Nc1cccc(C2=NOC3(C2)C[C@H](C(N)=O)N(C(=O)CC(c2ccccc2)c2ccccc2)C3)c1 (stereo not given in full),52
CCOC(=O)c1[nH]c(C)c(C(=O)OCC(=O)N(C)C2CCS(=O)(=O)C2)c1C (stereo not given),12
Cc1ncsc1CCOC(=O)c1ccc(Cl)cc1,-1

# The final 3 compounds of the part before come first, to join the parts.
SMILES,Biofilm kill mix
C/C=C/C=C/C(=O)Nc1cccc(C2=NOC3(C2)C[C@H](C(N)=O)N(C(=O)CC(c2ccccc2)c2ccccc2)C3)c1 (stereo not given in full),52
CCOC(=O)c1[nH]c(C)c(C(=O)OCC(=O)N(C)C2CCS(=O)(=O)C2)c1C (stereo not given),12
Cc1ncsc1CCOC(=O)c1ccc(Cl)cc1,-1
O=C(/C=C/c1cccc(Cl)c1)Nn1c(-c2cccs2)nc2ccccc2c1=O,10
O=c1[nH]nc(Cc2ccc(Cl)cc2)c2ccccc12,11
NC(=O)C1CCN(C(=O)COc2ccc(S(=O)(=O)NCc3ccccc3)cc2Cl)CC1,6
Cc1ccccc1-n1c(=O)cc(NCC2CCCO2)[nH]c1=O (stereo not given),12
Cc1ccc(CNC(=O)c2nn(C)c(C)c2[N+](=O)[O-])cc1,2
CCCOc1ccc(C2C(C(=O)c3ccc(C)o3)=C(O)C(=O)N2Cc2cccnc2)cc1 (stereo not given),9
C=CCN(c1ccccc1Cl)S(=O)(=O)c1cccc(C(=O)NCCc2ccc(OC)cc2)c1,16
O=C1CSC(=Nc2cccc(Cl)c2Cl)N1Cc1cccnc1,19
COc1ccc(-c2cc(-c3nnc(-c4ccncc4)o3)c3ccccc3n2)cc1,16
CCN(CC)CCCNc1oc(-c2ccccc2[N+](=O)[O-])nc1C#N,16
COc1ccc(NC(=O)NCc2ccccn2)cc1,2
COc1cccc(CNC(=O)c2ccc(CS(=O)(=O)Cc3ccc(C)cc3)o2)c1,19
O=C(OCC(=O)c1ccc[nH]1)c1ccccc1,-6
COCCNC(=S)NN=C1CCC(c2ccccc2)CC1 (stereo not given),-2
CCOC(=O)C(=O)c1csc(NC(=O)CCSc2ccc(C)cc2)n1,6

# Among those listed so far, 2 have an aryl thioether with sulfur outside any ring.
SMILES,Biofilm kill mix
NC(=O)CSc1nc2ccc([N+](=O)[O-])cc2[nH]1,18
CCOC(=O)C(=O)c1csc(NC(=O)CCSc2ccc(C)cc2)n1,6

# Next section
SMILES,Biofilm kill mix
CC1CCCN(c2ccc(C(=O)Nc3cccnc3)cc2[N+](=O)[O-])C1 (stereo not given),13
COc1ccc(C(C(=O)NCC2CCCO2)N(C(=O)CNC(=O)c2cccs2)c2ccc(C)cc2)cc1OC (stereo not given),16
Cc1ccc(C)c(CSc2nnc([C@@H]3CCCN3)o2)c1,13
CN(c1ccccc1)S(=O)(=O)c1cccc(NC(=O)COC(=O)C2CCCCC2)c1,18
O=C(CCn1cnc2ncccc2c1=O)N1CCN(c2cccc(Cl)c2)CC1,24
O=C(Nc1ccccc1)c1ccsc1,11
CC1CCN(Cc2c(C(=O)O)nnn2-c2nonc2N)CC1,11
S=C(NCCN1CCCCC1)Nc1ccc(Br)cc1,-6
CC(C)[n+]1ccn(C2=C([O-])c3ccccc3C(=O)/C2=N\S(=O)(=O)c2ccccc2)c1,13
CC1(C)CC(=O)C=C(C(=O)N2CCCC(C(=O)c3cccc(Cl)c3)C2)O1 (stereo not given),28
COc1ccc(S(=O)(=O)N(C)C)cc1NC(=O)Cc1c[nH]c2ccccc12,9
CCOc1ccc2nc(SCCNS(=O)(=O)c3ccccc3)sc2c1,18
Cc1ccccc1S(=O)(=O)c1cc2ccccc2nc1N,5
Cc1nn(-c2ccc(F)cc2)c(Cl)c1/C=C/C(=O)OCC(=O)Nc1c(F)c(F)c(F)c(F)c1F,11
O=C(NNC(=S)Nc1ccc(Cl)c(Cl)c1)c1cccc([N+](=O)[O-])c1,22
CCOC(=O)c1sc(NC(=O)c2ccc(OC)cc2)nc1C,20
CCOC(=O)c1cccc(NC(=O)c2ccc(N(C)C)cc2)c1,4
CCC(NC(=O)c1ccc(C#CC2(O)CCCCC2)cc1)C(=O)O (stereo not given),10
Cc1sc(NC(=O)c2ccccc2)c(C(c2ccc(Cl)cc2)N2CCN(CCO)CC2)c1C (stereo not given),10
C=CCn1nc(-c2ccccc2)c2c(C)onc2c1=O,10
COc1ccc(CNCCC2(Cc3ccccc3)CC(C)N(C)CC2C)cc1OC (stereo not given),16
O=C(O)Cc1csc(Nc2cccc(Cl)c2)n1,23
O=C(CN1CCCc2ccccc21)N/N=C/c1ccc(F)cc1F,20
O=C(C1CC1)N1CCc2sccc2C1c1ccc(Cl)cc1 (stereo not given),17
CCC1C(=O)N=C(SCC(=O)Nc2nc3ccccc3s2)NC1=O (stereo not given),16
Cc1ccc(NC(=O)Cn2c(O)c(N=NS(=O)(=O)c3ccc(C)cc3)c3ccccc32)cc1,11
Cc1ccc(CN2CCN(Cc3c[nH]c4ccccc34)CC2CCO)o1 (stereo not given),3
Cc1nn(C)c(Sc2ccccc2N)c1[N+](=O)[O-],1
Cc1cccc(N2CCN(C(=O)C3CCN(S(=O)(=O)c4c(C)noc4C)CC3)CC2C)c1 (stereo not given),6
CCN(CC)C(=O)Cn1ccc(NC(C)=O)nc1=O,10
CC(=O)c1ccc(S(=O)(=O)Nc2cccc(-c3ccc4nncn4n3)c2)cc1,15
Cc1ccc(C(=O)Nc2ccc(N3CCN(C)CC3)nc2)cc1,3
CC(C)N(Cc1nccn1C)C(=O)CCc1nnc(CCCc2ccccc2)o1,-13
COC(=O)c1ccc(OS(=O)(=O)c2ccc(NC(C)=O)cc2)cc1,10
CC(C)CCNc1c(-c2cccs2)nc2ccccn12,6
COc1cccc(CNC(=O)CCC2CCCN(C/C=C/c3ccccc3OC)C2)c1 (stereo not given),15
Cc1ccccc1NC(=O)NNC(=O)OC(C)(C)C,17
CCCCN1C(=O)Nc2ccccc2S1=O (stereo not given),-2
Oc1ccc(N2CCN(c3nc(-c4cccs4)nc4ccccc34)CC2)cc1,25
O=C(Oc1cc2oc(=O)c3c(c2cc1Cl)CCCC3)c1cccs1,0
CCOC(=O)N(NC(=O)C(O)(CC(C)C)CC(C)C)c1ccccc1,14
CCOC(=O)N1CCC(NC(=O)CCC(=O)N2CCOc3ccc(Cl)cc32)CC1,19
O=c1[nH]ncc(N2CCCC2)c1Cl,8
COc1ccc(NC(=O)CCCn2cc([N+](=O)[O-])cn2)cc1,13
O=C(NCCCN1CCN(c2ccccc2F)CC1)C1CCC(=O)N1C1CCCC1 (stereo not given),19
COc1cc2c(cc1OC)CC1(CCCCC1)N=C2,4
CCOC(=O)C1=C(C)NC(=O)C1CC(=O)O (stereo not given),11
CN(CC(O)COCc1ccc2c(c1)OCO2)C1CCCCC1 (stereo not given),10
Cc1onc(C(=O)Nc2c(C)n(C)n(-c3ccccc3)c2=O)c1[N+](=O)[O-],3
COc1ccc(N2C(=O)CC(N3CCN(S(=O)(=O)c4ccc(Cl)cc4)CC3)C2=O)cc1 (stereo not given),7
NC(=O)C1CCN(c2c([N+](=O)[O-])cc(C(F)(F)F)cc2[N+](=O)[O-])CC1,10
Cc1nc(-c2ccccc2)sc1C(=O)O,11
Cc1ccc(S(=O)(=O)NC(C(=O)Oc2ccc3ccc(=O)oc3c2)c2ccccc2)cc1 (stereo not given),-15
CCN1CCN(CC(=O)N2N=C(c3cccs3)CC2c2ccc(OC)cc2)C(=O)C1=O (stereo not given),32
O=C1NCCN(Cc2ccc(Cl)c(F)c2)C1CC(=O)N1CCc2ccccc2C1 (stereo not given),9
O=C(CCc1ccccc1)N1CCCN(C(=O)CCc2ccccc2)CC1,13
COc1cccc(/C=c2\s/c(=C/C(=O)c3ccc(C)cc3)[nH]c2=O)c1OC,15
CC1CN(S(=O)(=O)c2ccc(C(=O)Nc3nnc(-c4ccco4)o3)cc2)CC(C)O1 (stereo not given),9
Cc1ccc(N2C(=O)CC(N3CCN/C3=C3\CC/C(=C\c4ccccc4)C3=O)C2=O)cc1 (stereo not given),5
O=C(NC(=S)NCC1CCCO1)c1ccccc1F (stereo not given),12

# Retrieved one by one from the entries so far, 2 records:
SMILES,Biofilm kill mix
O=C(NC(=S)NCC1CCCO1)c1ccccc1F (stereo not given),12
CC1CN(S(=O)(=O)c2ccc(C(=O)Nc3nnc(-c4ccco4)o3)cc2)CC(C)O1 (stereo not given),9

# The results go on.
SMILES,Biofilm kill mix
CC(NC(=O)c1ccccc1)C(=O)N/N=C/c1cccc([N+](=O)[O-])c1 (stereo not given),6
N#C/C(=C\c1cccs1)C(=O)NCc1cccnc1,15
CCC1=C2CC[C@H]3C(=O)N(CC)C(=O)[C@H]3[C@H]2[C@@]2(Cc3ccccc3)C(=NCc3ccccc3)OC(=O)N2C1=O,19
CCOC(=O)C(CC)(CCC(=O)OC)c1csc(Nc2ccccc2O)n1 (stereo not given),8
Cc1cc(C)nc(/N=C(\N)Nc2ccc(S(=O)(=O)Nc3nccc(C)n3)cc2)n1,8
NNc1ncnc2sc3c(c12)CCC3,10
COc1ccc(NS(=O)(=O)c2cc(NC(=O)[C@@H](NC(=O)c3ccccc3)C(C)C)ccc2C)cc1,1
CC1CC(C)CN(C(=O)COc2ccc([N+](=O)[O-])cc2Cl)C1 (stereo not given),5
Cc1ccc(C(=O)C(C(=O)/C=C/c2ccccc2)=C2SCCCS2)cc1,9
COCC(C)NC(=O)CCc1nnc(C2(c3ccc(Cl)cc3)CCC2)o1 (stereo not given),9
CCOC(=O)CSc1nnc(CCCCCN2C(=O)c3cccc4cccc(c34)C2=O)o1,9
COc1ccc(NC(=O)/C(=C/c2cccnc2)NC(=O)c2cccs2)cc1,21
CN1CCN(c2nc3ccccc3nc2C(C#N)S(=O)(=O)c2ccccc2)CC1 (stereo not given),9
CCOC(=O)Cc1csc(NC(=O)Nc2ccc(F)cc2)n1,9
COc1ccc(Cn2c(O)c(C=Nc3ccccc3C(=O)O)c3ccccc3c2=O)cc1,10

# An excerpt from above in order of number of heavy atoms, ascending:
SMILES,Biofilm kill mix
S=C(NCCN1CCCCC1)Nc1ccc(Br)cc1,-6
O=C(CCc1nnc(CCc2ccccc2)o1)NC(c1cccnc1)C(F)(F)F (stereo not given),17
COc1ccc(CNCCC2(Cc3ccccc3)CC(C)N(C)CC2C)cc1OC (stereo not given),16

# Other compounds follow:
SMILES,Biofilm kill mix
CC(C)C1(CCNC(=O)c2cccs2)CCOC(C)(C)C1 (stereo not given),22
Cc1cccc(OCC(=O)N2CCOCC2)c1,15
COCCNC(=O)C(c1ccncc1)N(Cc1ccccc1)C(=O)Cn1nnc2ccccc21 (stereo not given),11
COc1ccc(CC(=O)O/N=C(\N)c2ccncc2)cc1,23
Cc1ccc(/C=C2\Oc3c(ccc(O)c3CN3CCN(CCO)CC3)C2=O)cc1,17
COc1ccc(NC(=O)Cn2cc(C#N)c3ccccc32)cc1,1
Cn1ncc(Br)c1C(=O)NC12CC3CC(CC(C3)C1)C2,12
Cc1cc([N+](=O)[O-])ccc1NC(=O)Cc1ccc(F)cc1,-2
CC(C)NCC(=O)C12CC3CC(CC(C3)C1)C2,7
Cc1ccc(NC(=O)Nc2cccc([N+](=O)[O-])c2)cc1F,17
CC(=O)NCCNC(=O)c1ccc(NC2=NC3CS(=O)(=O)CC3S2)cc1 (stereo not given),26
O=C(C[n+]1cccc(CNC(=O)c2ccc(OC(F)F)cc2)c1)Nc1ccc(SC(F)F)cc1,14
Cc1cccc(OCC(=O)N/N=C/c2ccc(N(C)C)cc2)c1,9
CC(Oc1ccccc1)C(=O)NNS(=O)(=O)c1ccc([N+](=O)[O-])cc1 (stereo not given),9
CC(=O)N1[C@H](Cc2ccccc2)C=C[C@]1(C)C(=O)NCc1ccccn1,16
